High-throughput results deposited in PubChem by National Center for Advancing Translational Sciences (NCATS).
VACV mCherry inh: qHTS for Stage-Specific Inhibitors of Vaccinia Orthopoxvirus: mCherry Reporter Primary qHTS | Vaccinia virus mCherry reporter infection, fluorescence; about a quarter of the inactives have no number | Potency, µM (series often up to 36.5 µM), for inactives: top-dose activity change, negative = inhibition, actives largely listed as inhibitors | hit rate 0.63% among 310,000 | AID 720579, 2013; active = well fitted inhibition curve with a large enough effect; inconclusive = small, poorly fitted or top-dose-only effect; inactive = no such curve, though single readings can be large or run the other way; tested in A549 cells; also: nearly all actives have a fitted effect of over 35% in size; inactives centre near -10
Vaccinia Venus: qHTS for Stage-Specific Inhibitors of Vaccinia Orthopoxvirus: Venus Reporter Primary qHTS. Vaccinia virus Venus reporter expression, fluorescence. Potency, µM (top dose mostly 36.5 µM), inactives show at the top dose activity change, negative = inhibition, usual class: inhibitors. hit rate 0.46% among 330,000; active means well fitted inhibition curve with a large enough effect; inconclusive means small, poorly fitted or top-dose-only effect; inactive means no such curve, though single readings can be large or run the other way; tested in A549 cells; also: nearly all actives have a fitted effect of over 30% in size; inactives centre near -10
* marks the source's active call; other numbers are inactive results; i = inactive; u = inconclusive; x = no result given; [ ] = remark or other dose. % is scaled to controls: 0 for no effect and ±100 for the full control effect; potency is read from the fitted curve at half-maximal effect.

SMILES,VACV mCherry inh,Vaccinia Venus
CSc1ccc(CNC(=O)c2sc3ncnc(N(C)C4CCCCC4)c3c2C)cc1,-6%,0%
CN(C)CCCNC(=O)C(=O)NCC1OCCN1S(=O)(=O)c1cc(F)ccc1F (centres undefined),-15%,-3%
Cc1c(Cl)cccc1NC(=O)Nc1cc(C(C)(C)C)on1,5%,-24%
COC(=O)c1ccc(-c2ccc(CNCC(O)c3ccccc3)o2)cc1 (centres undefined),-2%,-11%
Cn1cccc1C(=O)NC(=O)COC(=O)c1ccc(O)cc1,-12%,-18%
COc1cccc(-n2c(SCC(=O)c3ccc(Cl)cc3)nc3c([nH]c4ccccc43)c2=O)c1,u,u
COc1nccnc1NS(=O)(=O)c1ccc(NC(=O)c2ccc(F)cc2)cc1,-14%,1%
OC[C@H]1O[C@@H](c2nc(-c3nc(-c4ccc(F)cc4)no3)cs2)[C@H](O)[C@@H]1O,46%[activator],-7%
COC(=O)C1=C(c2c(C)noc2C)C[C@@H]2CC[C@H]1N2C(=O)N1CCC(O)CC1,i,4%
CC(C)C[C@H]1CN([C@@H](Cc2ccc(O)cc2)CN2CCC[C@H]2CN2C(=O)C(=O)NC[C@@H]2Cc2ccc(O)cc2)C(=O)C(=O)N1CCc1ccccc1,-13%,-5%
COc1ccc(C(=O)N/C(=C/c2ccc(Cl)cc2)C(=O)Nc2ccc(C(=O)O)cc2)cc1,i,-14%
CCOC(=O)[C@]12CCCC=C1N(Cc1ccc(Cl)cc1Cl)C(=O)[C@H](CC(=O)NCCc1ccccc1OC)C2,15%,-9%
O=C(Cc1ccccc1)Nc1cc([N+](=O)[O-])ccc1N1CCOCC1,i,2%
CCN1C(=O)[C@H]2[C@@H](c3ccc(C(F)(F)F)cc3)N[C@]3(CCCN(Cc4ccc(OC)cc4)C3=O)[C@H]2C1=O,-6%,u
CC(=O)N1CCN(C(=O)c2cc(-c3cccc4ccccc34)nc3ccccc23)CC1,-23%,-11%
CCn1c(NC(=O)c2nn(C)cc2Br)nc2ccccc21,-30%,-23%
COc1ccc(OCc2nnc(SCC(=O)NCC3CCCO3)n2N)cc1 (centres undefined),-18%,-15%
CC(C)c1ccc(N(CC(=O)NCCSCc2ccco2)S(C)(=O)=O)cc1,-13%,-7%
COC(=O)c1ccc(OC(=O)c2cnccn2)cc1,i,-6%
COc1cccc(-c2nn(C)c3sc(C(=O)N4CCN(c5cccc(C)c5)C(C)C4)cc23)c1 (centres undefined),-6%,1%
Cc1csc(NC(=O)CSc2nnc3c4ccccc4nc(C(C)(C)C)n23)n1,u,u
O=C(NCC1CCCO1)c1ccccc1NS(=O)(=O)c1cc([N+](=O)[O-])ccc1Cl (centres undefined),i,-20%
CSc1ncc(Cl)c(C(=O)Nc2ccccc2[N+](=O)[O-])n1,-5%,-2%
O=C(Nc1ccc2c(c1)OCCO2)C(c1ccnc2ccccc12)N1CCC(Cc2ccccc2)CC1 (centres undefined),i,0%
CC(C)=C1C2CCC1C(C(=O)NCCc1ccccc1)C2C(=O)O (centres undefined),i,-17%
COc1cccc(C=NNC(=O)c2ccncc2)c1O,1.6µM*,u
CCOC(=O)c1oc2c(c1C)/C(=N/O)CCC2,-17%,-8%
CCOc1ccc(C2C(C(=O)Nc3ccc(F)cc3)=C(C)Nc3nc(CCCO)nn32)cc1 (centres undefined),-2%,-3%
Cc1c(NS(=O)(=O)c2cccc3nsnc23)c(=O)n(-c2ccccc2)n1C,i,-28%
Cc1ccc(C(=O)NC2c3ccccc3-c3ccccc32)cc1,u,u
NC(=O)c1cc(C(=O)Cc2ccc(Cl)cc2)c[nH]1,-17%,-6%
Cc1ccccc1CN1CCC(CNC(=O)Nc2ccc(F)cc2F)CC1,-16%,-26%
CCOC(=O)Nc1ccc(S(=O)(=O)NCc2ccccc2)cc1,u,-19%
COc1ccc(CNC(=O)c2cc3sccc3n2C)cc1,-13%,-4%
O=C(O)CC(CCc1ccccc1)OC1OC(CO)C(O)C(O)C1O (centres undefined),-14%,-19%
C#CCOCCOCCOCCNc1nc(N2CCN(C(=O)[C@H](CO)n3cc([C@@H](N)C(C)C)nn3)CC2)nc(N2CCN(C(=O)[C@H](CO)n3cc([C@@H](N)C(C)C)nn3)CC2)n1,-6%,11%
Cc1ccc(NC(=O)c2ccc3nc[nH]c3c2)c(O)c1,i,-3%
CC1=NN(c2ccccc2C)C(=O)C1,-26%,-1%
CC(C)Cn1c(=O)c(C(=O)Nc2ccccc2S(N)(=O)=O)c(O)c2ccccc21,u,u
O=C1c2ccccc2CN1CCNS(=O)(=O)c1ccc(Cl)cc1,-12%,-3%
O=C(CSc1nnc2ccc3ccccc3n12)Nc1ccccc1Cl,-14%,-11%
Cc1ccccc1C(=O)Nc1nc2nc(-c3ccccc3)cc(=O)n2[nH]1,-1%,3%
O=C(Nc1ccc(Cl)cc1)Nc1ccc2c(c1)N1CCN=C1S2,-21%,u
COc1cccc(-n2c(CNc3ccc(F)cc3)nnc2SCC(N)=O)c1,-14%,-3%
CCc1ccc2nc(SCC(=O)N(CC)CC)c(C#N)cc2c1,x,-14%
Cc1cc(SCC(=O)N(C)c2c(N)n(Cc3ccccc3)c(=O)[nH]c2=O)nc2ccccc12,i,-19%
Nc1nccnc1C(=O)OCC(=O)NCCc1ccc(S(N)(=O)=O)cc1,-10%,-12%
CCC(=O)c1ccc2ncccc2c1,-6%,-12%
CCc1cc2c(COC(=O)c3cccc(NS(C)(=O)=O)c3)cc(=O)oc2cc1O,-9%,-18%
Cn1cc([C@]2(O)C(=O)Nc3cccc(Cl)c32)c2ccccc21,i,-14%
Cc1ccc(S(=O)(=O)N(C)C[C@@H]2OCc3cnnn3CCCC(=O)N([C@H](C)CO)C[C@H]2C)cc1,-11%,-10%
Cc1ccc(N=CC=C2OC(C)(C)C(C)(C)O2)cc1,-21%,-15%
Cc1cnc(C(=O)OCC(=O)Nc2ccc(C)c(S(=O)(=O)N3CCCCCC3)c2)cn1,i,-14%
COc1ccc(S(=O)(=O)n2nc(OC(=O)c3ccncc3)cc2N)cc1,i,-18%
CCOc1ccc(CCNC(=O)c2ccc(-n3c(C)cc4c3CCC(C)C4)cc2)cc1OCC (centres undefined),-7%,-22%
CCCCC(=O)N(C)c1c(CC)nc2c(OCc3cccc(Cl)c3)cccn12,25%,-15%
O=C(CN1C(=O)CSC1=O)Nc1ccccc1N1CCOCC1,i,-23%
COc1ccc(C(=O)Nc2cccc3nc(C)ccc23)c(OC)c1,-20%,-1%
COc1cccc(N2CCN(C(=O)c3c(C)oc4ncnc(N5CCOCC5)c34)CC2)c1,-12%,-8%
C=Cc1ccc(Cn2c(C(=O)O)c(CNCc3cc(OC)ccc3OC)c3ccc(C)cc32)cc1,-14%,-12%

Following part:
SMILES,VACV mCherry inh,Vaccinia Venus
O=C(c1cccs1)N1N=C(c2ccccc2)CC1c1ccc(O)cc1 (centres undefined),-28%,-16%
COc1cccc(CN(C)C(=O)C2CSC3(C)CCC(=O)N23)c1OC (centres undefined),-17%,-18%
CN(C(=O)CSc1nnc(COc2ccccc2F)n1N)C1CCS(=O)(=O)C1 (centres undefined),i,10%
CCCc1cc(=O)n2[nH]c(C)c(-c3ccccc3OC)c2n1,i,-10%
CC(OC(=O)c1nc(-c2ccccc2)n(-c2ccccc2)n1)C(=O)Nc1cc(Cl)cc(Cl)c1 (centres undefined),-19%,-8%
Cc1ccc(C)c(N(CC(=O)NC(C)(C)C)C(=O)CNC(=O)c2cccs2)c1,i,-2%
Cc1ccc2oc(C(=O)N(Cc3ccc(N(C)C)cc3)C3CCS(=O)(=O)C3)c(C)c2c1 (centres undefined),i,-15%
COc1cc(-c2c(-c3ccsc3)sc3ccccc23)cc(OC)c1OC,i,-8%
CCC(C)NC(=O)Cn1cnc2sc(C)cc2c1=O (centres undefined),x,-2%
COc1ccc(C(=O)NC2CCCc3ccccc32)cc1Br (centres undefined),u,u
O=C(CC1C(=O)NCCN1CC1CCCCC1)NC1(c2ccccc2)CC1 (centres undefined),-4%,-4%
O=C1NC[C@@H](CCCCN2C[C@H](Cc3ccc(O)cc3)N(CC3CCCCC3)C(=O)C2=O)N(CCc2ccccc2)C1=O,-2%,-3%
COc1ccc(C(=O)/C=C/c2ccc(OC)c(O)c2)c(F)c1,-17%,-15%
CCOC(=O)CNC(=O)N1CCc2ccc(NC(=O)c3ccccc3OC)cc2C1,i,-10%
CC1CN(C(=O)c2cccc(S(=O)(=O)Nc3cc(Cl)ccc3Cl)c2)CC(C)O1 (centres undefined),-2%,-3%
CCc1ccc(NC(=O)c2cc(S(=O)(=O)NC3CCCCCC3)ccc2F)cc1,-22%,-20%
CC/C(O)=C1\C(=O)CC(c2ccccc2)CC1=NC(C)C (centres undefined),-9%,-5%
c1csc(-c2csc(-c3cccs3)n2)c1,-12%,-8%
CCN(C(=O)c1ccc(Br)cc1)c1ccccc1,-3%,-11%
CC(C)OC(=O)Cn1nnc(-c2ccccc2)n1,i,-9%
O=C1NC(c2ccc(Cl)cc2Cl)Oc2ccccc21 (centres undefined),i,2%
NC(=O)C12CCCC(Br)(CCC1)C2,-16%,-1%
CCC(C)c1ccc(S(=O)(=O)N2CCN(C(=O)COc3ccc4c(C)cc(=O)oc4c3)CC2)cc1 (centres undefined),-16%[1.46 µM],-14%
Cc1ccc(C(=O)NCCCn2ccnc2)cc1[N+](=O)[O-],-13%,-12%
COc1ccc(NC(=O)Nc2cccc(-c3cn4cccnc4n3)c2)cc1,-4%,-8%
CCONC(=O)Nc1ccccc1[N+](=O)[O-],-12%,-10%
CCn1c(C(=O)Nc2ccccc2C(=O)OC)cc2sc(Cl)cc21,-13%,-7%
Cc1[nH]n(-c2ccc([N+](=O)[O-])cc2)c(=O)c1C=NCCc1c[nH]c2ccccc12,-1%,-2%
NS(=O)(=O)c1ccc(CCNc2nc3c(-c4cccc(F)c4)nnn3c3ccccc23)cc1,-13%,1%
COc1cccc(CNC(=O)Cc2c(C)c3c(cc(C)c4c(C)c(C)oc43)oc2=O)c1,-10%,-9%
CCC(c1nnnn1CCc1ccccc1)N1CCN(C(=O)c2ccco2)CC1 (centres undefined),-10%,-23%
COc1ccc(OC)c(CNC(=O)C2CCN(S(=O)(=O)N3CCCCC3)CC2)c1,-7%,-4%
Cc1ccc(C)c(N2CCN(C(=O)CCc3nc(-c4ccccc4)no3)CC2)c1,-11%,-8%
O=C(c1ccc(NC(=S)Nc2ccc(Cl)c(Cl)c2)cc1)N1CCCC1,i,-19%
CS(=O)(=O)N1CCN(C(=O)c2ccc(-c3ccccc3)cc2)CC1,x,-16%
Cc1ccc(NC(=S)NCC2CCCO2)cc1 (centres undefined),x,u
O=C(CCc1nc2sc3c(c2c(=O)[nH]1)CCCC3)NCCc1ccc(Cl)cc1,i,-12%
CC[C@]12c3[nH]c4cc(-c5ccco5)ccc4c3CCN1C(=O)[C@@H](CC(=O)NCCc1ccccn1)C[C@@H]2C(=O)N1CCN(C(=O)C2CC2)CC1,i,-28%
CCOC(=O)C/C(C)=N/NC(=O)C1CC1(c1ccccc1)c1ccccc1 (centres undefined),-8%,-1%

2 of these compounds in a different format:
CCn1c(C(=O)Nc2ccccc2C(=O)OC)cc2sc(Cl)cc21
  VACV mCherry inh: -13%; Vaccinia Venus: -7%
CCOC(=O)C/C(C)=N/NC(=O)C1CC1(c1ccccc1)c1ccccc1 (centres undefined)
  VACV mCherry inh: -8%; Vaccinia Venus: -1%

In the list so far, these contain fluorine:
SMILES,VACV mCherry inh,Vaccinia Venus
CN(C)CCCNC(=O)C(=O)NCC1OCCN1S(=O)(=O)c1cc(F)ccc1F (centres undefined),-15%,-3%
COc1nccnc1NS(=O)(=O)c1ccc(NC(=O)c2ccc(F)cc2)cc1,-14%,1%
OC[C@H]1O[C@@H](c2nc(-c3nc(-c4ccc(F)cc4)no3)cs2)[C@H](O)[C@@H]1O,46%[activator],-7%
CCN1C(=O)[C@H]2[C@@H](c3ccc(C(F)(F)F)cc3)N[C@]3(CCCN(Cc4ccc(OC)cc4)C3=O)[C@H]2C1=O,-6%,u
CCOc1ccc(C2C(C(=O)Nc3ccc(F)cc3)=C(C)Nc3nc(CCCO)nn32)cc1 (centres undefined),-2%,-3%
Cc1ccccc1CN1CCC(CNC(=O)Nc2ccc(F)cc2F)CC1,-16%,-26%
COc1cccc(-n2c(CNc3ccc(F)cc3)nnc2SCC(N)=O)c1,-14%,-3%
CN(C(=O)CSc1nnc(COc2ccccc2F)n1N)C1CCS(=O)(=O)C1 (centres undefined),i,10%
COc1ccc(C(=O)/C=C/c2ccc(OC)c(O)c2)c(F)c1,-17%,-15%
CCc1ccc(NC(=O)c2cc(S(=O)(=O)NC3CCCCCC3)ccc2F)cc1,-22%,-20%
NS(=O)(=O)c1ccc(CCNc2nc3c(-c4cccc(F)c4)nnn3c3ccccc23)cc1,-13%,1%
